# Vaccinia stage = blocks a specific stage of Vaccinia orthopoxvirus infection | Vaccinia-infected cells, mCherry/Venus stage reporter fluorescence; stronger effect = lower value; some inactives read as strong as hits | activity change (mCherry), % (concentration not given with the values) | 0.01% of 89,000 active | AID 1053133;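 active = mCherry past -33% and 40 or more points under the early reporter, replicates agreeing; inconclusive = past -33% without that gap or agreement; tested in A549 cells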;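 note: scaled between vehicle wells and reference inhibitor wells; 23 nL library stock went into each well; one replicate is shown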
# Vaccinia stage Venus = second read-out of Vaccinia stage, no call of its own (marks repeat the call); activity change (Venus), %; measured here: Venus reporter, other viral stage;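 negative = less Venus signal; first of two replicates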
# The depositor's hits bear a star; ? = inconclusive; nt = no result given; & = joins results of further samples. This is a subset (hit frequency here may not be typical).
# Under each structure: Vaccinia stage	Vaccinia stage Venus
CNC[C@H]1Oc2c(NS(=O)(=O)c3cccs3)cccc2C(=O)N([C@@H](C)CO)C[C@H]1C
    -2	-1
CC(=O)N1CCCCN2[C@@H](CO)[C@H](c3ccc(-c4ccccc4)cc3)[C@@H]2C1
    -9	-12
CC(C)CC#Cc1ccc([C@@H]2[C@H](CO)N3C(=O)CN(C(=O)Nc4cc(F)ccc4F)C[C@@H]23)cc1
    -27	-13
CS(=O)(=O)N1Cc2cc(C(=O)NCC3CC3)nc(-c3cccc(-c4cncnc4)c3)c2[C@@H]1CCO
    10	4
C[C@@H]1CCCCO[C@H](CN(C)C(=O)c2ccccc2)[C@@H](C)CN([C@H](C)CO)C(=O)c2cc(NS(=O)(=O)c3ccc(F)cc3)ccc2O1
    9	4
Cc1cccc(-c2ccc([C@@H]3[C@@H](CO)N4C(=O)CN(C(=O)c5ccccc5)C[C@@H]34)cc2)c1
    -24	-15
C[C@@H]1CN([C@H](C)CO)S(=O)(=O)c2ccc(C#CCN(C)C)cc2O[C@@H]1CN(C)Cc1ccc(F)cc1
    -18	-6
C[C@H](NC(=O)C[C@H]1C[C@@H]2c3cc(NC(=O)NC4CCCCC4)ccc3O[C@@H]2[C@H](CO)O1)c1ccccc1
    12	3
CCCN1C[C@H](C)[C@H](OC)CN(C)C(=O)c2ccc(NC(=O)c3cccc(OC)c3)cc2OC[C@H]1C
    -3	-4
CO[C@H]1CN(C)C(=O)c2cc(NC(=O)CC(F)(F)F)ccc2OC[C@@H](C)N(S(=O)(=O)c2cn(C)cn2)C[C@H]1C
    10	10
O=S(=O)(c1ccc(Cl)cc1)N1[C@@H]2CNC[C@H]1C2c1ccc(-c2cccnc2)cc1 (stereo partly drawn)
    21&-18	8&-6
Cc1ccc(S(=O)(=O)N(C)C[C@@H]2Oc3ccc(NC(=O)Nc4ccc(C(F)(F)F)cc4)cc3CC(=O)N([C@H](C)CO)C[C@@H]2C)cc1
    -15	-15
C[C@@H]1CN([C@H](C)CO)S(=O)(=O)c2ccc(C#Cc3ccc(F)cc3)cc2O[C@H]1CN(C)C(=O)NC1CCCCC1
    ?	nt
C[C@@H]1CCCCO[C@@H](CN(C)C(=O)Nc2ccccc2)[C@@H](C)CN([C@H](C)CO)C(=O)c2cc(NC(=O)Nc3ccc(F)cc3)ccc2O1
    35	22
C[C@H]1CN([C@@H](C)CO)C(=O)c2cc(NC(=O)Cc3ccccc3)ccc2O[C@@H]1CN(C)S(=O)(=O)c1ccccc1
    2	1
C[C@@H]1CN([C@@H](C)CO)C(=O)c2cc(NC(=O)c3ccncc3)ccc2O[C@H]1CN(C)C(=O)NC1CCCCC1
    16	10
CCCNC(=O)Nc1ccc2c(c1)C(=O)N(C)C[C@@H](OC)[C@@H](C)CN(C(=O)C1CC1)[C@@H](C)CO2
    3	-1
COc1ccccc1-c1ccc(C2[C@H]3CNC[C@@H]2N3C(=O)Nc2ccccc2Cl)cc1 (stereo partly drawn)
    -5	-6
O=C(C[C@@H]1C[C@@H]2c3cc(NS(=O)(=O)c4ccc(F)cc4)ccc3O[C@@H]2[C@@H](CO)O1)N1CCc2ccccc2C1
    -19	-12
CN(C)C(=O)C[C@H]1CC[C@@H](NS(=O)(=O)c2ccccc2)[C@H](CO)O1
    -2	-3
CCCNC(=O)N1[C@@H]2CNC[C@H]1C2c1ccc(/C=C/c2ccccc2)cc1 (stereo partly drawn)
    1&-16	8&-11
C[C@@H]1CN([C@@H](C)CO)C(=O)Cc2cc(NC(=O)c3ccncc3)ccc2O[C@@H]1CN(C)Cc1ccc(Oc2ccccc2)cc1
    -8	0
C[C@H](CO)N1C[C@H](C)[C@H](CN(C)C(=O)Nc2ccc(F)cc2)Oc2ccc(NC(=O)Nc3cccc4ccccc34)cc2CC1=O
    6	9
C[C@@H]1CN([C@@H](C)CO)C(=O)c2cccc(NC(=O)C3CCCCC3)c2O[C@@H]1CN(C)S(=O)(=O)c1ccc(F)cc1
    -25	-19
COCC(=O)N1CCCCN2[C@H](C1)[C@@H](c1ccc(-c3cccc(C)c3)cc1)[C@@H]2CO
    -14	-15
C[C@H](CO)N1C[C@H](C)[C@@H](CN(C)C(=O)Nc2ccc3c(c2)OCO3)Oc2c(NC(=O)c3cnccn3)cccc2C1=O
    10	1
C[C@@H]1CN([C@H](C)CO)C(=O)Cc2cc(NC(=O)Nc3ccccc3)ccc2O[C@H]1CN(C)Cc1ccc(C(F)(F)F)cc1
    -34	-21
C[C@@H]1CN([C@@H](C)CO)C(=O)c2cc(NC(=O)Nc3ccc4c(c3)OCO4)ccc2O[C@@H](C)CCCCO[C@@H]1CN(C)CC1CCCCC1
    18	13
CC=Cc1ccc2n(c1=O)C[C@@H]1[C@@H](CO)[C@H](C(=O)NC3Cc4ccccc4C3)N(CCC)[C@H]21 (mixture of isomers)
    -12	-8
COC(=O)[C@@H]1[C@@H](CO)[C@@H]2Cn3c(ccc(-c4ccc(OC)cc4)c3=O)[C@@H]2N1C
    17	22
COc1ccccc1C#Cc1ccc2c(c1)[C@@H]1[C@@H](CCN1C(=O)c1ccc(F)cc1)[C@H](CO)N2
    ?	nt
C[C@H]1CN([C@@H](C)CO)C(=O)c2c(c3ccccc3n2C)-c2ccccc2CO[C@H]1CN(C)Cc1ccc(F)cc1
    ?	nt
CS(=O)(=O)Nc1ccc2c(c1)[C@@H]1C[C@@H](CC(=O)NCc3ccccn3)O[C@@H](CO)[C@@H]1O2
    9	5
C[C@@H]1CN([C@H](C)CO)C(=O)c2c(c3ccccc3n2C)-c2ccccc2CO[C@@H]1CN(C)Cc1cccc(C(F)(F)F)c1
    -32	-14
CO[C@H]1CN(C)C(=O)c2ccc(NC(=O)Nc3ccc(C(F)(F)F)cc3)cc2OC[C@H](C)NC[C@@H]1C
    ?	nt
CC=Cc1ccc2n(c1=O)C[C@H]1[C@H](CO)[C@@H](C(=O)N3CCc4ccccc4C3)[C@@H]2N1CCC (mixture of isomers)
    6	8
COc1ccccc1NC(=O)N[C@@H]1CC[C@@H](CCNC(=O)Cc2ccccn2)O[C@@H]1CO
    5	5
CCCNC(=O)Nc1ccc2c(c1)OC[C@@H](C)N(Cc1cncnc1)C[C@H](C)[C@H](OC)CN(C)C2=O
    4	11
O=C(Cc1ccccc1)N1CC2(C1)[C@H](c1ccccc1)[C@@H](CO)N2C(=O)Cc1ccccc1
    -9	-3
CC(C)CC#Cc1ccc([C@H]2[C@H]3CN(C(=O)c4cnccn4)CC(=O)N3[C@H]2CO)cc1
    15	0
Cc1ccc(S(=O)(=O)Nc2ccc3c(c2)C(=O)N([C@H](C)CO)C[C@@H](C)[C@H](CN(C)S(=O)(=O)c2ccccc2)OCCCC[C@H](C)O3)cc1
    ?	nt
C[C@H](O)C#Cc1ccc([C@H]2[C@H](CO)N3CCCCN(C(=O)c4ccncc4)C[C@@H]23)cc1
    33	9
O=C(NCCc1ccncc1)[C@H]1[C@H](CO)[C@H]2Cn3c(ccc(-c4ccncc4)c3=O)[C@@H]1N2
    6	2
O=C(NCC[C@H]1CC[C@@H](NC(=O)C2CCCC2)[C@H](CO)O1)c1ccc(F)cc1
    -4	-7
C[C@@H]1CCCCO[C@H](CN(C)C(=O)CCC(F)(F)F)[C@@H](C)CN([C@@H](C)CO)C(=O)c2cc(NC(=O)c3ccccc3)ccc2O1
    -13	-4
COc1ccc2c3c([nH]c2c1)[C@H](CO)N(C(=O)c1ccccc1)CC31CCN(C(=O)CC2CC2)CC1
    3	-5
CO[C@H]1CN(C)C(=O)c2ccc(NC(C)=O)cc2OC[C@@H](C)N(CC2CCCCC2)C[C@@H]1C
    -24	-9
COCC#Cc1ccc2c(c1)O[C@@H](CN(C)C(=O)C1CCCCC1)[C@H](C)CN([C@@H](C)CO)S2(=O)=O
    -1	-8
CCC(=O)N1C[C@H](C)[C@@H](OC)CN(C)C(=O)c2cc(NC(=O)C3CC3)ccc2OC[C@@H]1C
    4	-6
Cc1ccc(S(=O)(=O)N[C@@H]2CC[C@@H](CC(=O)NCCc3ccncc3)O[C@H]2CO)cc1
    4	2
O=C(N[C@H]1CC[C@@H](CCNC(=O)C2CCC2)O[C@@H]1CO)c1ccccn1
    6	3
CC(C)NC(=O)Nc1ccc2c(c1)C(=O)N([C@@H](C)CO)C[C@H](C)[C@@H](CN(C)C(=O)NC1CCCCC1)O2
    10	10
Cc1ccc(S(=O)(=O)Nc2ccc3c(c2)CC(=O)N([C@@H](C)CO)C[C@H](C)[C@@H](CN(C)Cc2ccc4c(c2)OCO4)O3)cc1
    -25	-17
COc1cccc(CN(C)C[C@@H]2OCc3ccccc3-c3c(n(C)c4ccccc34)C(=O)N([C@H](C)CO)C[C@H]2C)c1
    ?	nt
O=C(C[C@H]1C[C@@H]2c3cc(NC(=O)C4CCC4)ccc3O[C@@H]2[C@H](CO)O1)NCc1ccccn1
    7	3
CCCC#Cc1ccc([C@@H]2[C@@H](CO)N3C(=O)CN(C(=O)Nc4ccc(F)cc4)C[C@@H]23)cc1
    -28	-22
C[C@@H]1CN([C@@H](C)CO)C(=O)c2cc(NC(=O)Cc3cn(C)c4ccccc34)ccc2O[C@H]1CN(C)C(=O)Nc1ccc(F)cc1
    25	16
O=C(C[C@H]1CC[C@H](NC(=O)Nc2ccccc2F)[C@H](CO)O1)NCc1ccc(F)cc1
    3	0
C[C@H]1CN([C@@H](C)CO)C(=O)c2cccc(NC(=O)C3CC3)c2O[C@@H]1CN(C)S(=O)(=O)c1ccc(Cl)cc1
    0	0
O=C(C[C@@H]1CC[C@@H](NC(=O)Cc2cccnc2)[C@@H](CO)O1)Nc1ccccc1
    1	1

# In a second layout: entries from further up
Compound | Vaccinia stage | Vaccinia stage Venus
C[C@@H]1CN([C@@H](C)CO)C(=O)c2cccc(NC(=O)C3CCCCC3)c2O[C@@H]1CN(C)S(=O)(=O)c1ccc(F)cc1 | -25 | -19
Cc1cccc(-c2ccc([C@@H]3[C@@H](CO)N4C(=O)CN(C(=O)c5ccccc5)C[C@@H]34)cc2)c1 | -24 | -15
C[C@@H]1CCCCO[C@@H](CN(C)C(=O)Nc2ccccc2)[C@@H](C)CN([C@H](C)CO)C(=O)c2cc(NC(=O)Nc3ccc(F)cc3)ccc2O1 | 35 | 22

# Entries of single compounds as entered above. Order of screens: Vaccinia stage	Vaccinia stage Venus
# O=C(C[C@H]1C[C@@H]2c3cc(NC(=O)C4CCC4)ccc3O[C@@H]2[C@H](CO)O1)NCc1ccccn1 reads 7	3
# CCCC#Cc1ccc([C@@H]2[C@@H](CO)N3C(=O)CN(C(=O)Nc4ccc(F)cc4)C[C@@H]23)cc1 reads -28	-22
# COc1ccc2c3c([nH]c2c1)[C@H](CO)N(C(=O)c1ccccc1)CC31CCN(C(=O)CC2CC2)CC1 reads 3	-5
# CCC(=O)N1C[C@H](C)[C@@H](OC)CN(C)C(=O)c2cc(NC(=O)C3CC3)ccc2OC[C@@H]1C reads 4	-6

# Next section
# Under each structure: Vaccinia stage	Vaccinia stage Venus
C[C@@H]1CN([C@@H](C)CO)S(=O)(=O)c2ccc(-c3cncnc3)cc2O[C@@H]1CN(C)Cc1cncnc1
    14	13
C[C@@H]1CN([C@H](C)CO)C(=O)Cc2cc(NS(=O)(=O)c3ccccc3)ccc2O[C@@H]1CN(C)C(=O)Nc1cccc2ccccc12
    12	9
O=C(c1cccnc1)N1C[C@@H]2[C@H](c3ccccc31)[C@H](CO)N2C(=O)Nc1ccccc1F
    15	15
C[C@@H]1CN([C@@H](C)CO)C(=O)c2cccc(N(C)C)c2O[C@H]1CN(C)C(=O)Nc1cccc2ccccc12
    ?	nt
C[C@@H]1CN([C@@H](C)CO)S(=O)(=O)c2ccc(-c3cncnc3)cc2O[C@H]1CN(C)Cc1ccccc1
    -14	-21
C[C@@H]1CN([C@H](C)CO)C(=O)c2cc(NC(=O)CCCCCC(=O)Nc3ccccc3N)ccc2O[C@@H]1CN(C)C(=O)Nc1ccc(F)cc1
    -3	-3
C[C@@H]1CN([C@H](C)CO)C(=O)c2cc(-c3ccc(F)cc3)cnc2O[C@H]1CN(C)Cc1cccnc1
    -7	-8
CO[C@@H]1CC[C@H]2CCN(C)C(=O)C[C@H](c3ccccc3)CN(C)C(=O)c3cccc(C#N)c3OC[C@@H]1O2
    12	12
CCCC#Cc1ccc2c(c1)O[C@H](CN(C)C(=O)c1ccccc1)[C@@H](C)CN([C@H](C)CO)S2(=O)=O
    -14	0
CCNC(=O)[C@H]1[C@H](CO)[C@H]2Cn3c(ccc(-c4cccc(C(=O)N(C)C)c4)c3=O)[C@@H]1N2
    9	5
C[C@H]1CN([C@@H](C)CO)S(=O)(=O)c2ccc(-c3cccnc3)cc2O[C@H]1CN(C)C(=O)C1CCC1
    10	0
Cc1noc(C)c1NC(=O)Nc1ccc2c(c1)C(=O)N([C@@H](C)CO)C[C@@H](C)[C@@H](CN(C)C(=O)Nc1ccc3c(c1)OCO3)OCCCC[C@@H](C)O2
    1	-3
C[C@@H]1CN([C@@H](C)CO)C(=O)Cc2cc(NS(=O)(=O)c3cccs3)ccc2O[C@@H]1CN(C)Cc1ccc(C(=O)O)cc1
    10	3
Cc1ccc(S(=O)(=O)NCC[C@@H]2CC[C@@H](NC(=O)Nc3cccc(F)c3)[C@H](CO)O2)cc1
    -33	-21
COc1ccccc1NC(=O)N(C)C[C@H]1Oc2ncc(C#CCN(C)C)cc2C(=O)N([C@@H](C)CO)C[C@@H]1C
    6	-5
C[C@H](CO)N1C[C@H](C)[C@H](CN(C)S(=O)(=O)c2cn(C)cn2)Oc2ncc(/C=C/c3ccccc3)cc2C1=O
    24&22	1&12
Cc1noc(C)c1S(=O)(=O)Nc1ccc2c(c1)C(=O)N([C@H](C)CO)C[C@H](C)[C@@H](CN(C)Cc1ccc(Cl)c(Cl)c1)OCCCC[C@@H](C)O2
    ?	nt

# Source: PubChem (Broad Institute)
